gsp agonist: agonists of gsp mutant (McCune-Albright syndrome); gsp mutant cells, cAMP HTRF, 30 min; control for the full effect not named in the record; Potency, µM (highest dose often 76.9 µM), without a hit: top-dose activation (cAMP increase), most hits filed as activators; hit rate 0.13% among 340,000; AID 624287; active = well fitted activation curve with a large enough effect; inconclusive = small, poorly fitted or top-dose-only effect, or another doubt; inactive = no such curve, though single readings can be large or run the other way; cell line not stated here;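 further: phosphodiesterase inhibitor Ro 20-1724 added with compounds to block cAMP breakdown; potency means the concentration at half of the fitted maximal effect; nearly all actives have a fitted effect of over 60% in size; about a fifth of the inactives were tested at one dose only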
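Cells stably selected in G418 were plated at 2000/well, grown 16-24 hr, then given compounds in DMSO with the PDE inhibitor […] (300 uM solution added) for 30 min at 37C; cAMP was read by HTRF.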
TRPML1 inh: blocks the human TRPML1 channel. AID 624415. TRPML1-inducible cells, Ca2+ dye fluorescence, FDSS; stronger effect = lower value; inhibition of EC80 agonist-evoked calcium signal. activity change, negative = inhibition, % (no concentration beside the values). hit rate 0.02% among 390,000. Q9GZU1; in the data active means activity change below about -50%; inconclusive means about -30% to -50%; inactive means above about -30%;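 further: stimulus is agonist 54-4 at its EC80 concentration; on the % scale 0 is the no-effect control and ±100 the full control effect; compound concentration not given in the record; the text of the record puts the active cut at -80%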
Target sequence (Q9GZU1 whole entry, looked up): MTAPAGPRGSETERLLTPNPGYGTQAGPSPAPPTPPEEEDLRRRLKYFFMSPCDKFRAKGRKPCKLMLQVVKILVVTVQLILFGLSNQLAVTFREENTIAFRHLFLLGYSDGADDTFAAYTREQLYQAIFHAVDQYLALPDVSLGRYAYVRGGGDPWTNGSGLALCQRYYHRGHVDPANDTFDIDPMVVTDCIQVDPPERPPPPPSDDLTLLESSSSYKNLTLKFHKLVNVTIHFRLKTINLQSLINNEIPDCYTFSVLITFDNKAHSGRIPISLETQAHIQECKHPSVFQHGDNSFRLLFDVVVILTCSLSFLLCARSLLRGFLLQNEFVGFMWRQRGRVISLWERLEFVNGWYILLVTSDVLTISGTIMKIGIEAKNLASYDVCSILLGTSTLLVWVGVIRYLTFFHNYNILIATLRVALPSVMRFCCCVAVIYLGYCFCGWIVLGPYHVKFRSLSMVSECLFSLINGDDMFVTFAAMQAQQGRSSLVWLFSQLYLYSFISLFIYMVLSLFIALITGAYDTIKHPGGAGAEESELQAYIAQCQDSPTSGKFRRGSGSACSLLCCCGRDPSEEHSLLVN
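Calcium fluorescence in TRPML1-DL cells induced overnight with Tet: a 110 s read after compound pin addition, then a 110 s antagonist read after challenge with 54-4 at 4 uM final (EC80).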
Menin MLL FP FL: inhibitors of human menin-MLL interaction, wild-type MLL peptide. Fluorescence polarization, fluorescein-MLL peptide displacement from menin. FP activity change, % at 61.4 µM. 290,000 tested, under 10 active. AID 1766; inconclusive = falling polarisation curve, or a change in total fluorescence; inactive = total fluorescence flat and polarisation flat or rising; no compound was filed as active; the % refers to the polarisation; negative = inhibition;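 further: % of control where 0% means no effect; inhibitors lower the polarisation; unlabelled MLL peptide was the positive control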
gsp antag: antagonizes gsp, the McCune-Albright syndrome mutation; hit rate 0.4% among 340,000; Potency, µM (highest dose often 76.9 µM), for the others: top-dose activity change, negative = inhibition, actives largely listed as inhibitors; AID 624288; gsp-mutant cells, cAMP HTRF, 30 min; control for the full effect not named in the record; active = falling curve of any shape with a large fitted effect; inconclusive = falling curve, mostly with a smaller effect; inactive = flat or rising curve; cell line not stated here;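 further: intracellular cAMP measured with PDE inhibitor Ro 20-1724 present during compound exposure; potency means the concentration at half of the fitted maximal effect; on the % scale 0 is the no-effect control and ±100 the full control effect; nearly all actives have a fitted effect of over 65% in size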
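HTRF cAMP measurement after 30 min RT detection following 30 min, 37C compound treatment alongside […] (added as 300 uM solution) in G418-selected cells seeded at 2000/well and grown 16–24 h.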
ClpP mod: qHTS Assay for Activators of ClpP; purified B. subtilis ClpP, FRET peptide cleavage, 20 min; hit rate 1.9% among 340,000; Potency, µM (titrated, usually from 57.5 µM), inactives show at the top dose activity change, negative = active; ATP-dependent Clp protease proteolytic subunit (Bacillus subtilis (strain 168)), P80244; active = well fitted falling curve with a large enough effect; inconclusive = small, poorly fitted or top-dose-only effect; inactive = no such curve, though single readings can be large or run the other way; further: potency means the concentration at half of the fitted maximal effect; the source files actives as falling curves though it sought activators and does not explain the sign; nearly all actives have a fitted effect of over 65% in size; many hits overshoot -100%
Target sequence (P80244 whole entry, looked up): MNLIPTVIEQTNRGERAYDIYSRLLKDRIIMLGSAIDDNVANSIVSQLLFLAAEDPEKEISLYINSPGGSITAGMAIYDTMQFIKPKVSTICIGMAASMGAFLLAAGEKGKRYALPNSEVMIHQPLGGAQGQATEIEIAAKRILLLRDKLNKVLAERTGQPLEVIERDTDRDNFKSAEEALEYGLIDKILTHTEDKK
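Purified B. subtilis ClpP, 10 microg/mL final in Tris/HCl pH8 with KCl, BSA, glycerol and Tween-20, cleaved an Abz/nitrotyrosine-quenched decapeptide. Fluorescence (ex 320, em 430) was read at 0 and 20 min at room temperature. Delta was normalized to 5.8 microM ADEP and DMSO/no-enzyme controls.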
TRPML1 ag: agonists of human TRPML1 channel; AID 624414; activation, % (concentration not given with the values); TRPML1-expressing cells, Ca2+ dye fluorescence, FDSS; host cell line not named in the record; reference of the full effect not given here; Q9GZU1; hit rate 0.12% among 410,000; in the data active = activation above about 50%; inconclusive = about 30% to 50%; inactive = below about 30%; further: 0% is about no effect; the text of the record puts the active cut at 80%
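Tet-induced TRPML1-DL cells, 1,500 per well, cultured overnight, were loaded with a no-wash Ca2+ dye for 45–90 min. Calcium fluorescence was recorded on the FDSS for 110 s after compound addition, before the EC80 agonist (4 uM 54-4) was added.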
Starred values were filed as active, the others as inactive; ? = inconclusive; . = no result given; & = joins results of further samples; [ ] = dose if it differs, or a comment.

SMILES	gsp agonist	TRPML1 inh	Menin MLL FP FL	gsp antag	ClpP mod	TRPML1 ag
CCCCN1CC(=O)N2[C@H]3c4cc(C)ccc4OC[C@@H]3[C@H](c3ccccc3)[C@]2(C)C1=O	25%	-6	.	-15%	0.4%	0.6
COC(=O)c1ccc(OC)cc1OCC(=O)N1CCN(c2ccc(F)cc2)CC1	1%	-2	0.8	-11%	0.5%	0.0
CC1=C(C(=O)Nc2ccccn2)C(c2ccc(Br)cc2)NC(=S)N1 (centres undefined)	-2%	18	0.1	-2%	-1.7%	0.2
NC(=O)c1ccc(Nc2ccc3c(c2)CCC3)c([N+](=O)[O-])c1	14%	13	-10	-6%	.	3.0
COc1cc(OC)c2c(OC)cccc2n1	-39%[inhibitor]	5	.	9%	18µM*	1.4
COc1ccc(-c2n[nH]c(=S)n2-c2ccc3c(c2)OCCO3)cc1	19%	-1	.	?	-21%	-1.0
COc1ccc(NC(C)C(=O)Nc2cc(C(F)(F)F)ccc2N2CCOCC2)c(OC)c1 (centres undefined)	-49%[inhibitor]	22	4.6	-13%	-2.5%	1.3
Nc1nc(CN2CCN(c3ccccc3)CC2)nc(N2CCCc3ccccc32)n1	-22%	-3	0.6	-6%	-1.9%	-0.9
C/C(=N\NC(=O)CNC(=O)c1ccc2c(c1)OCCO2)c1ccco1	7%[15.4 µM]	32	5.8	8%	1.0%	-0.3
O=C(NC1CCCCC1)c1cccnc1C(=O)O	-32%[inhibitor]	4	0.3	2%	0.7%	-0.1
O=C1CCN(Cc2ccc(Br)cc2)CCN1[C@H](CO)Cc1ccccc1	.	17	-2.4	-3%	-0.4%&-2.9%	1.4&5.3
CN(C)S(=O)(=O)c1ccc(N2CCCC2)c(C(=O)NCc2ccc(Cl)cc2)c1	3%	-1	1.5	-1%	0.8%	75*
O=C(c1ccccc1)N1CCC(c2nc3c(nnn3Cc3ccccc3Cl)c(=O)[nH]2)CC1	-34%[inhibitor]	23	-3.5	-14%	0.5%	0.2
O=CNCc1nc2ccccc2n1CCCc1ccccc1	-1%	-16	-0.1	-10%	-4.2%	1.5
COCCNC(=O)Cn1nc(C)c2c(C)n(-c3ccc(C)cc3)nc2c1=O	.	1	.	.	-0.4%	-0.2
CCN(CC)S(=O)(=O)c1ccc2c(c1)c(=O)c(C(=O)NCc1ccc(Cl)cc1)cn2C	.	-13	.	.	-7.6%	-0.6
O=S(=O)(/N=C(/Nc1cccc2ccccc12)c1ccccc1)c1ccc(Br)cc1	8%	3	.	?	1.3%	-0.7
Clc1ccc(C#Cc2cccnc2)cc1	-37%[inhibitor]	6	.	2%	-1.3%	-0.8
O=C(COC(=O)CCc1c[nH]c(=O)[nH]1)Nc1cccc(Cl)c1	19%	-24	2.9	9%	11%	0.6
O=C(CSc1nc(-c2cccc(F)c2)[nH]c1-c1ccccc1)Nc1ccc2c(c1)OCO2	.	6	.	.	?	4.4
O=C(Nc1ccc(F)cc1)N1CCN(c2ncccn2)CC1	-29%	2	-1.3	-3%	-3.7%	0.2
CCOC(=O)c1cn(CC(=O)Nc2cccc(F)c2)nn1	21%	-4	-0.4	6%	.	-0.2
COc1cccc(Oc2ccc(S(=O)(=O)N3CCCC3)cc2[N+](=O)[O-])c1	-70%[inhibitor]	7	-12	-19%	0.4%	2.1
Cc1ccc(C)c(NC(=O)N2CCc3ccccc3C2)c1	26%	26	.	5%	1.1%	1.0
COc1ccc(N2CCN(C(=O)c3sc4ncn(CC(=O)N5CCCCC5C)c(=O)c4c3C)CC2)cc1 (centres undefined)	-28%	5	.	-7%	-3.6%	0.1
Cc1ccc(C2=NS(=O)(=O)N(C)C(C(=O)NCc3ccc4c(c3)OCO4)=C2)cc1	?	-10	5.3	-12%	-0.6%	-0.2
Cc1cc(C)n(-c2nc3ccccc3nc2N2CCCC2)n1	?	-7	0.6	-8%	-0.2%	1.8
COCCNc1nc(-c2ccccc2)nc2c1oc1ccccc12	-3%[15.4 µM]	-22	1.6	?	-0.3%	0.0
CCCNC(=O)c1cccc(COCC(F)(F)C(F)F)c1	-16%	-4	-0.8	-2%	-1.6%	0.5
CCCC(C(=O)NC1CCCC1)N(C(=O)Cn1nnc(-c2ccc(C)o2)n1)c1ccccc1F (centres undefined)	-16%	-6	0.8	-3%	.	0.2
CCN(c1ccccc1)S(=O)(=O)c1nnc(NC(=O)c2ccco2)s1	21%	1&4	4.8	-13%	-11%&-6.3%	-0.6&0.4
C=CCCC(=O)Nc1nc(C)c(-c2csc(Nc3cc(Cl)ccc3OC)n2)s1	-1%	23	0.0	-6%	-17%	-0.7
CC(C)OC(=O)c1cccnc1SCC(=O)Nc1ccc(C(F)(F)F)cc1Cl	.	53	.	.	2.3%	0.3
CCC(C(=O)NC1CCCC1)n1c(SCc2cccc(C)c2)nc2ccncc21 (centres undefined)	?	-7	1.7	-4%	-9.6%	0.0
Cc1cc(/C=C\c2ccc3cc(N(C)C)ccc3[n+]2C)c(C)n1-c1ccccc1	.	7	?	?	-11%	5.3
COC(=O)c1ccc(C2NC(=O)NC(C)=C2C(=O)N(C)C)cc1 (centres undefined)	-20%	0	0.7	1%	0.4%	-0.1
Cc1c(C#N)sc2nc(-c3ccccc3)nc(N3CCCC3)c12	?	-4	-3.1	9%	?	-0.1
O=C(CSc1n[nH]c(=O)n1C1CC1)Nc1ccc(OC(F)(F)F)cc1	10%[15.4 µM]	-14	.	-2%	-1.3%	0.3
COc1cc(C(=C(CC(=O)O)C(=O)O)c2ccc3c(c2)OCO3)cc(OC)c1OC	-2%	-25	.	0%	-4.0%	0.0
Cc1cc(OCCN2CCCC2)ccc1C(C)C	-4%	16	-0.9	10%	-3.9%	1.5
CCCOc1ccc(/C=N/Nc2cccc([N+](=O)[O-])c2)c(O)c1	-1%[15.4 µM]	21	-3.2	5%	2.3%	-0.2
CCOc1ccccc1NC(=O)Cc1coc2ccc(C)cc12	-8%	1	-1.4	-5%	.	0.1
CNS(=O)(=O)c1ccc(NC(=O)c2ccccn2)cc1	2%	-1	1.5	4%	-3.8%	1.3
Cc1cccc(CCNS(=O)(=O)c2ccc(S(=O)(=O)N3CCC(C)CC3)cc2)c1	-1%	14	.	9%	2.6%	-0.5
Cc1ccc(/C=N/c2sc(Cc3ccccc3)c(C)c2C(N)=O)o1	-7%	3	3.0	-1%	-25%	0.4
O=C(CCCOc1ccc(Br)cc1)Nc1nnc(C2CC2)s1	-4%	-16	.	3%	0.0%	0.4
CCn1cc(C(=O)NCc2ccccc2)c(=O)c2cc(S(=O)(=O)N3CCc4ccccc4C3)ccc21	.	-12	.	.	-12%	-1.1
c1ccc(-c2csc3ncnc(NCC4COc5ccccc5O4)c23)cc1 (centres undefined)	-66%[inhibitor]	43	-1.3	5%	0.5%	2.1
O=C(CSc1nnc(NC2CC2)s1)c1ccc[nH]1	10%[15.4 µM]	7	.	-7%	-2.3%	0.7
Cc1c(Cl)c(-c2n[nH]c(=S)n2-c2ccc(F)cc2)nn1C	?	4	-0.1	27%	-1.6%	0.0

Carrying on:
SMILES	gsp agonist	TRPML1 inh	Menin MLL FP FL	gsp antag	ClpP mod	TRPML1 ag
Cc1ccc(CCNCc2c(C(=O)O)c(C)n(-c3ccccc3)c2C)cc1	?	-12	-3.3	-7%	-2.3%	0.3
COCCNC(=O)Nc1cc(C(=O)NCc2ccc(C(C)C)cc2)ccc1N1CCCC1	.	8	.	.	-9.7%	1.0
Cc1cc2nc(-c3cccc(NC(=O)C(C)C)c3C)oc2cc1C	.	-9	.	.	4.5%	-0.5
Cc1nc2ccccc2c(=O)n1NC(=O)C1CCC(C(C)(C)C)CC1 (centres undefined)	5%	-10	-4.2	1%	.	-0.2
CC(=O)NC(O)C(=O)c1ccco1 (centres undefined)	-99%[inhibitor]	-4	5.5	3%	-0.3%	0.8
CC1CN(S(=O)(=O)c2ccc(C(=O)NC3CCCCC3)cc2)CC(C)O1 (centres undefined)	-2%[15.4 µM]	6	.	3%	0.0%	-0.3
O=C(O)C1CCN(S(=O)(=O)c2cccc3nonc23)CC1	0%	25	.	9%	1.8%	-0.1
Cc1cc(C)c(C)c(Oc2ncnc(N)c2[N+](=O)[O-])c1	0%	2	29	8%	-4.3%	1.5
CCOC(=O)[C@@H]1[C@H]2COc3cc(OC)ccc3[C@H]2N2C(=O)N(c3ccccc3)C(=O)[C@]12C	-35%[inhibitor]	-9	.	-17%	-1.8%	-0.5
COc1ccc(-n2c(=S)[nH]c3c(oc4ccccc43)c2=O)cc1	11µM*	-4	-2.0	1%	-2.1%	0.3

Overlap with the part before: 3 entries, followed by the next part.
SMILES	gsp agonist	TRPML1 inh	Menin MLL FP FL	gsp antag	ClpP mod	TRPML1 ag
Cc1cc(C)c(C)c(Oc2ncnc(N)c2[N+](=O)[O-])c1	0%	2	29	8%	-4.3%	1.5
CCOC(=O)[C@@H]1[C@H]2COc3cc(OC)ccc3[C@H]2N2C(=O)N(c3ccccc3)C(=O)[C@]12C	-35%[inhibitor]	-9	.	-17%	-1.8%	-0.5
COc1ccc(-n2c(=S)[nH]c3c(oc4ccccc43)c2=O)cc1	11µM*	-4	-2.0	1%	-2.1%	0.3
CCN(CC)C(=O)C1=C(C)N(Cc2ccccc2)C(=O)C(CC(=O)NCCCN(C)C)C1 (centres undefined)	-36%[inhibitor]	0	.	.	1.4%	-0.4
CCCC(=O)N(c1ccc(OC)cc1)C1C=CS(=O)(=O)C1 (centres undefined)	-9%	-9	-0.1	-1%	-2.6%	-0.3
CC(C)CNC(=S)NC1CC2CCCC(C1)N2C1CCCCC1 (centres undefined)	-17%	-7	-1.3	14%	0.6%	1.0
O=C(Cn1c(=O)nc(-c2ccccc2)c2ccccc21)NCc1ccccc1Cl	.	36	.	.	-7.0%	2.5
CC(C)CCNC(=O)c1onc(CSc2ccccn2)c1C(=O)NCCC(C)C	-2%	4	.	-18%	-0.9%	2.0
CC(C)[C@H](Nc1ccc(S(=O)(=O)N2CCOCC2)cc1[N+](=O)[O-])C(=O)OCC(N)=O	-5%	48	0.6	-5%	-2.0%	1.2
CC1CCCC(NC(=O)CCNS(=O)(=O)c2ccc(Br)cc2)C1C (centres undefined)	9%	-26	1.8	-6%	-2.4%	1.6
CCCC(=NCc1ccccc1)C1=C(O)C(C(=O)OC)C(C)(C)CC1=O (centres undefined)	3%	-8	3.4	-6%	1.0%	0.1
CCCNC(=O)c1ccc(N2CCC3(CC2)CC(c2ccc(Cl)cc2)=NO3)c([N+](=O)[O-])c1	.	-16	1.7	8%	-0.8%	0.4
Cc1c(N(C)C(=O)c2ccco2)c(=O)n(-c2ccccc2)n1C	14%	-6	-0.6	11%	0.7%	0.3
Cc1cn2c(=O)c(C(=O)N3CCN(c4ccccc4F)CC3)cnc2s1	-2%[15.4 µM]	11	.	-3%	.	-0.8
COc1ccc(NC(=O)N(C(C)C)C2CCN(C(C)=O)CC2)c(OC)c1	.	-8	.	.	-0.6%	-0.9
